TRPML1 blocker = inhibitors of human TRPML1 channel. Q9GZU1. TRPML1-inducible cells, Ca2+ dye fluorescence, FDSS; hits give low values; inhibition of EC80 agonist-evoked calcium signal. activity change, negative = inhibition, % (test concentration not listed). 390,000 tested, 0.02% active. AID 624415; in the data active means activity change below about -50%; inconclusive means about -30% to -50%; inactive means above about -30%;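 note: stimulus is agonist 54-4 at its EC80 concentration; % is set by controls: 0 for no effect and ±100 for the full control effect; compound concentration not given in the record; the text of the record puts the active cut at -80%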
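Calcium fluorescence in TRPML1-DL cells induced overnight with Tet: a 110 s read after compound pin addition, then a 110 s antagonist read after challenge with 54-4 at 4 uM final (EC80).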
gsp agonist = activates gsp, the McCune-Albright syndrome mutation; gsp mutant cells, cAMP HTRF, 30 min; control for the full effect not named in the record; Potency, µM (titrated, usually from 76.9 µM), inactives show at the top dose activation (cAMP increase), usual class: activators; AID 624287; 340,000 tested, 0.13% active; active = well fitted activation curve with a large enough effect; inconclusive = small, poorly fitted or top-dose-only effect, or another doubt; inactive = no such curve, though single readings can be large or run the other way; cell line not stated here;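 note: phosphodiesterase inhibitor Ro 20-1724 added with compounds to block cAMP breakdown; potency is the fitted concentration of half-maximal effect; nearly all actives have a fitted effect of over 60% in size; about a fifth of the inactives were tested at one dose only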
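Cells in DMEM/10% FBS with G418 were pretreated with compounds in DMSO plus […] (300 uM stock) for 30 min at 37C. cAMP was measured by HTRF (cAMP-d2 plus anti-cAMP antibody-K) after 30 min at room temperature.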
TRPV1 PAM = enhances activation of the human vanilloid receptor TRPV1. Q8NER1. TRPV1-expressing cells, Fluo-8 calcium influx, capsaicin EC20 potentiation; host cell line not named in the record; control for the full effect not named in the record. potentiation, % at 8.33 µM. 320,000 tested, 0.02% active; active means potentiation above 80%; inconclusive means 30% to 80%; inactive means below 30%; note: 0% is about no effect
Target sequence (Q8NER1 whole entry, looked up): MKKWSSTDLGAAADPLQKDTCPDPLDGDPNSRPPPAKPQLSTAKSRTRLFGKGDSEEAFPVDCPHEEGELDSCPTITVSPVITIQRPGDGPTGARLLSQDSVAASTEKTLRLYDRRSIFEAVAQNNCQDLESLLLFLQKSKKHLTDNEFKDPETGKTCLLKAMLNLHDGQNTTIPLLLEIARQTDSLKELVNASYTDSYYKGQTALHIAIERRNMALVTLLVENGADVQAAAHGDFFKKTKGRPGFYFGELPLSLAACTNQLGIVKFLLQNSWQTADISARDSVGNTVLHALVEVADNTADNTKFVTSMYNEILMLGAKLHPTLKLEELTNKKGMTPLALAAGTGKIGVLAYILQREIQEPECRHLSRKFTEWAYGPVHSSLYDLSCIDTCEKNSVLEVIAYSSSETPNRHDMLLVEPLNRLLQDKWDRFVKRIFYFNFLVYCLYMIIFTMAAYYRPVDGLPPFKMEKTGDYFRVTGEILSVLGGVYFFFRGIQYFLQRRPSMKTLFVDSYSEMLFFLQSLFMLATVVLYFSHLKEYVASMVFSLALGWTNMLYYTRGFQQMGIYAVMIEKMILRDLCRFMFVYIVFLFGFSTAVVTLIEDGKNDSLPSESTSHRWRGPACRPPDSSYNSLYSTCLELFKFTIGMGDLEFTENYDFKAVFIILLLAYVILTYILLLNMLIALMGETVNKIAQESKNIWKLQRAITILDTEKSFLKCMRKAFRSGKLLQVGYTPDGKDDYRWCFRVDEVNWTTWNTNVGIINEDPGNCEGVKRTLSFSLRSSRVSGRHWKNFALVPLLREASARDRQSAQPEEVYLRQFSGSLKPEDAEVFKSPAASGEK
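Fluo-8 calcium influx in TRPV1-expressing cells, kinetic read (ex 480/em 520 nm). Compound added and read 3 min for agonist activity, followed by capsaicin at EC20 final and 2 min further read for enhancement.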
Sfp PPTase inh = inhibitors of Bacillus subtilis Sfp phosphopantetheinyl transferase; Biochemical Sfp PPTase activity, qHTS; 310,000 tested, 3.5% active; Q9F4F7; Potency, µM, for the others: max response, negative = inhibition, actives largely listed as inhibitors; active = well fitted inhibition curve with a large enough effect; inconclusive = small, poorly fitted or top-dose-only effect, or another doubt; inactive = no such curve, though single readings can be large or run the other way;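 note: the enzyme is Sfp with the accession as filed and its product quenches rhodamine fluorescence; potency is the fitted concentration of half-maximal effect; 0% = enzyme reaction without inhibitor and -100% = no enzyme wells; top concentration of the series not given in the record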
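Step 1, compound plus 15 nM Sfp-PPTase, 15 min, room temperature. Step 2, add rhodamine-CoA (5 uM) and BHQ-2-YbbR (12.5 uM). Step 3, read 525/598 nm fluorescence at 0 and 30 min.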
ClpP mod = qHTS Assay for Activators of ClpP | purified B. subtilis ClpP, FRET peptide cleavage, 20 min | Potency, µM (top dose mostly 57.5 µM), for inactives: at the highest dose activity change, negative = active | 340,000 tested, 1.9% active | AID 651965, 2013; active = well fitted falling curve with a large enough effect; inconclusive = small, poorly fitted or top-dose-only effect; inactive = no such curve, though single readings can be large or run the other way; note: potency is the fitted concentration of half-maximal effect; the source files actives as falling curves though it sought activators and does not explain the sign; nearly all actives have a fitted effect of over 65% in size; many hits overshoot -100%
Target sequence (P80244 whole entry, looked up): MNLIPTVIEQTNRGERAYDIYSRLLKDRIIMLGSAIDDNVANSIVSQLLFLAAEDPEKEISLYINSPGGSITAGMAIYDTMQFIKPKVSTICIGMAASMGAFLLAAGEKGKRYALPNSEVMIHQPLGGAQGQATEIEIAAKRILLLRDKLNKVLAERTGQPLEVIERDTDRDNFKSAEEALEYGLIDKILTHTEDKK
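Purified B. subtilis ClpP, 10 microg/mL final in Tris/HCl pH8 with KCl, BSA, glycerol and Tween-20, cleaved an Abz/nitrotyrosine-quenched decapeptide. Fluorescence (ex 320, em 430) was read at 0 and 20 min at room temperature. Delta was normalized to 5.8 microM ADEP and DMSO/no-enzyme controls.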
gsp antag = antagonizes gsp, the McCune-Albright syndrome mutation; 340,000 tested, 0.4% active; Potency, µM (titrated, usually from 76.9 µM), without a hit: top-dose activity change, negative = inhibition, usual class: inhibitors; AID 624288; gsp-mutant cells, cAMP HTRF, 30 min; control for the full effect not named in the record; active = falling curve of any shape with a large fitted effect; inconclusive = falling curve, mostly with a smaller effect; inactive = flat or rising curve; cell line not stated here;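 note: intracellular cAMP measured with PDE inhibitor Ro 20-1724 present during compound exposure; potency is the fitted concentration of half-maximal effect; % is set by controls: 0 for no effect and ±100 for the full control effect; nearly all actives have a fitted effect of over 65% in size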
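Cells, 2000/well, grown 16–24 h in DMEM 10% FBS with 0.5 mg/ml G418, then compounds plus […] (300 uM addition stock), 30 min at 37C. cAMP read by HTRF (cAMP-d2 and anti-cAMP antibody-K in lysis buffer) after 30 min RT.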
Menin MLL FP FL = inhibitors of human menin-MLL interaction, wild-type MLL peptide | 290,000 tested, under 10 active | Fluorescence polarization, fluorescein-MLL peptide displacement from menin | FP activity change, % at 61.4 µM; inconclusive = falling polarisation curve, or a change in total fluorescence; inactive = total fluorescence flat and polarisation flat or rising; no compound was filed as active; the % refers to the polarisation; negative = inhibition;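 note: % of control where 0% means no effect; inhibitors lower the polarisation; unlabelled MLL peptide was the positive control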
Starred values were filed as active, the others as inactive; ? = inconclusive; · = not tested or not shown; [ ] = another dose, or the depositor's remark.

SMILES	TRPML1 blocker	gsp agonist	TRPV1 PAM	Sfp PPTase inh	ClpP mod	gsp antag	Menin MLL FP FL
NS(=O)(=O)c1ccc(CCNC(=S)Nc2ccc(S(N)(=O)=O)cc2)cc1	-5	-6%	-2	20µM*	-1.1%	6%	-0.2
Cc1nc2cc(-c3cccc(F)c3)nn2c(N2CCN(C(=O)c3ccco3)CC2)c1C	16	-55%[inhibitor]	-20	?	-4.1%	-16%	0.0
COc1cccc(-n2nc(C(C)=O)c(C#N)c2-c2ccco2)c1	-14	?	5	-15%	2.4%	13%	-1.7
COCCCNC(=S)NC1CC2CCCC(C1)N2Cc1ccco1 (centres undefined)	5	1%	-1	12%	-1.1%	10%	-2.3
Cc1ccc(NC(=O)c2cc(-c3cccs3)on2)cc1	-10	-9%	3	6%	?	5%	3.4
O=C(O)/C=C/C(O)c1ccc(Cl)cc1 (centres undefined)	-15	·	3	?	0.3%	1%	-2.0
CCn1c(SCC(=O)c2cccs2)nnc1-c1ccco1	-15	?	10	0%	-0.5%	22%	?
COc1ccc(C)cc1NS(=O)(=O)c1ccc2c(c1)oc(=O)n2C	-20	6%	-17	12%	0.7%	6%	1.1
CN1CCN(C(=O)c2ccc3c(c2)N(Cc2ccccc2F)C(=O)c2ccccc2S3=O)CC1 (centres undefined)	7	-10%	4	-1%	2.3%	-9%	3.7
Cc1nc2ccccc2n1CC(=O)c1ccc(O)c(O)c1	-16	·	-1	·	-9.6%	8%	·
CSCCC(=O)N1CCCC(N2CCN(c3cccc(C(F)(F)F)c3)CC2)C1 (centres undefined)	10	-20%	14	2%	-2.3%	2%	-1.2
CCc1ccc(C2CC(c3ccco3)=NN2S(C)(=O)=O)cc1 (centres undefined)	-3	?	4	-6%	-2.2%	5%	38[activator]
O=C(Nc1ccc2c(c1)C(=O)N(C1CCCCC1)C2=O)C1CCCO1 (centres undefined)	2	3%	-20	3%	32µM*	-13%	0.0
COCCN1CCN(Cc2cn(C)nc2-c2cccc(Cl)c2)CC1	-6	-18%[15.4 µM]	-4	4%	·	5%	1.0
Cc1cc(NCCCCCCCNc2cc(C)nc3cc([N+](=O)[O-])ccc23)c2ccc([N+](=O)[O-])cc2n1	2	-53%[inhibitor]	·	·	1.0%	-5%	·
C=CCOc1ccccc1CN1CCC(CO)(CCOc2ccccc2)CC1	21	-4%	2	1%	·	8%	2.4
OC(COc1c(Cl)cc(Cl)cc1Cl)CN1CCCCC1 (centres undefined)	-2	-9%	-4	12%	-1.4%	12%	-0.3
C/C(=N\Nc1ccc(C(=O)O)cc1)c1nc2ccccc2n1C	·	·	-2	17%	·	·	3.7
CCOC(=O)CC1CCCCN1C(=O)CCCn1nnnc1CN1CCC(C)CC1 (centres undefined)	-28	13%	-7	10%	-2.6%	-16%	0.7
O=C(NC(=S)Nc1ccc(CN2CCOCC2)cc1)c1cccc([N+](=O)[O-])c1	14	1%[15.4 µM]	-1	45µM*	1.6%	-10%	8.5
CC(C)(C)OCC1CO1 (centres undefined)	8	·	29	·	1.6%	-2%	·
COc1ccccc1OCc1ccc(C(=O)N2N=C(C(F)F)CC2(O)C(F)F)o1 (centres undefined)	11	-42%[inhibitor]	?	17%	-1.9%	-19%	4.5
COc1cccc(NC(=O)CC(=O)c2ccc([N+](=O)[O-])cc2)c1	-5	-13%	-11	0%	-0.9%	-15%	1.0
O=C1c2ccccc2S(=O)(=O)c2cc(N3CCC(C(=O)N4CCCCC4)CC3)ccc21	5	·	·	·	-0.7%	-4%	·
COC(=O)C1CC2=C(CC(C)(C)CC2=O)N(c2ccccc2)C1=O (centres undefined)	37	·	·	·	-1.7%	9%	·
O=C(O)C1CCCCC1C(=O)OCCCCOC(=O)C1CCCCC1C(=O)O (centres undefined)	17	-11%	-17	10%	1.2%	-5%	4.8
Cc1cnc(NC(=O)CSc2ncn(-c3ccccc3)n2)s1	7	-4%	-1	-4%	0.8%	-2%	-1.4
O=C1CC[C@@]23CCCN2C(=O)CCCC3C1 (some centres undefined)	0	·	·	10%	-0.1%	-9%	-1.6[138 µM]
Cc1ccc(CNC(=O)C(=O)NCCC2CCCCN2S(=O)(=O)c2cccs2)cc1 (centres undefined)	-1	2%[15.4 µM]	1	·	-7.8%	-12%	·
CCN1C(=O)c2cccc3c(N)ccc(c23)C1=O	1	?	6	-14%	-9.5%	-2%	?
Cc1cc(NC(=O)CCCC(=O)N(CC(=O)NC2CCCCC2)c2ccccc2)no1	-5	-22%	18	16%	0.9%	7%	11
CCN1CCN(c2ccc(NC(=O)c3ccc4c(c3)[nH]c(=O)n4Cc3ccc(OC)cc3)cc2)CC1	9	-5%	8	-15%	1.5%	-6%	0.3
NC(=O)CC(NC(=O)Cc1ccc(Cl)cc1)c1ccc(NC2CC3CCC2C3)c([N+](=O)[O-])c1 (centres undefined)	-14	-26%	-14	-6%	-2.8%	-7%	0.3
O=C(Nc1nc2ccccc2n1CCN1CCCCC1)c1ccco1	-14	-32%[inhibitor]	2	7%	-3.5%	-7%[15.4 µM]	2.2
COC(C[C@H]1O[C@H]1[C@H](O)[C@H](C)OCc1ccccc1)OC	-2	-2%	-12	17%	-0.5%	10%	1.7
O=[N+]([O-])c1ccc2nc(N3CCCC3)sc2c1	26	-16%	11	-16%	1.0%	?	-17
Cc1cc(C)c(C(=O)NC2CC(C)(C)Cc3c2cnn3-c2cccc(F)c2)[nH]1 (centres undefined)	-5	-37%	10	6%	0.1%	-31%	2.7
Cc1cc(C(=O)Nc2ccc3c(c2)OCO3)no1	-5	?	-1	5%	2.5%	22%	·
CCOC(=O)c1cnc(SCC(=O)Nc2cccc(OC)c2)nc1N	5	-2%	4	2%	-0.4%	-9%	2.5
CN(C)c1ccc2c3c(ccc(N(C)C)c13)C(=O)OC2	-3	-4%	-14	-3%	-16%	0%	1.7
CCCC(=O)Nc1ccc2oc(-c3cncc(Br)c3)nc2c1	4	7%	-11	7%	3.9%	3%	1.6
CCOC(=O)c1nnc(-c2ccccc2)nc1NCc1ccc(Cl)cc1	2	-18%	-1	50µM*	0.5%	-4%	7.4
FC(F)(F)c1cnc(N2CCN(C(=S)NCc3ccccc3)CC2)c(Cl)c1	15	20%	-6	6%	·	-21%	0.4
CCC(=O)Nc1ccc(C(=O)Cn2nc(C(=O)O)c3ccccc3c2=O)cc1	·	·	7	-8%	·	·	11
Cc1ccccc1Nc1ccc2nonc2c1[N+](=O)[O-]	36	-22%	5	-4%	-0.4%	-2%	1.2
COc1nnc(OC)c2ccccc12	1	7%	-12	7%	0.5%	13%	0.6
C=CC[C@@H](CC(=O)N[C@H](CO)Cc1ccccc1)C(=O)N[C@H](COC(=O)[C@@H](CC=C)Cc1ccc(F)cc1)Cc1ccccc1	-3	?	·	·	1.7%	-7%	·
CCC(C(=O)NC1CCCC1)N(Cc1ccco1)C(=O)CNS(=O)(=O)c1ccccc1 (centres undefined)	-1	-1%[15.4 µM]	1	7%	·	6%	-4.1
COc1cccc(OC)c1OCCCCN1CCCC1	-17	24%	-1	-22%	-1.1%	9%	-0.3
CCOc1c(Cl)cc(CNc2ccc(S(N)(=O)=O)cc2)cc1OC	41	16%	-5	13%	-7.7%	9%	0.5
CCCS(=O)(=O)NCCc1cc2c(OC)ccc(OC)c2[nH]c1=O	-9	-2%	0	5%	-4.5%	-5%	2.0
CCC(=O)Nc1ccc(NC(=S)NC(=O)c2oc3ccccc3c2C)cc1	-14	2%	-14	6%	-8.0%	5%	1.1
CCN(CC)S(=O)(=O)c1cccc(-c2nnc(SCC(=O)c3cc(C)n(C)c3C)o2)c1	5	7%	12	-3%	-16%	-10%	2.9
CS(=O)(=O)N(CC(N)=O)c1cccc(Br)c1	2	-10%	-1	7%	0.9%	5%	0.1
O=C(C1CCC(=O)N1Cc1cccnc1)N1CCN(c2ccc(F)cc2)CC1 (centres undefined)	3	-17%	·	1%	-0.3%	5%	-1.4
COc1cccc(Cn2c(=S)[nH]c3ccc(N4CCOCC4)cc3c2=O)c1	13	?	-4	-17%	-4.9%	6%	4.1
N#C/C(=C\c1ccc[nH]1)C(=O)Nc1ccccc1[N+](=O)[O-]	14	15%	-11	12%	-1.3%	11%	·
Cc1ccccc1C(=O)NC1CC(C)(C)NC(C)(C)C1	0	-11%	2	17%	-1.8%	6%	7.2
O=C(CN1C(=O)c2ccccc2C1=O)NNC1=NS(=O)(=O)c2ccccc21	?	2%	-6	-11%	-1.9%	10%	2.8
CC(=O)N(C)c1ccc(NC(=O)Cc2cccc3ccccc23)cc1	42	0%[15.4 µM]	·	·	·	-1%	·

Next part:
SMILES	TRPML1 blocker	gsp agonist	TRPV1 PAM	Sfp PPTase inh	ClpP mod	gsp antag	Menin MLL FP FL
Cc1cccc(C)c1-n1c(C)nn(CC2CC2)c1=O	-4	11%[15.4 µM]	0	14%	·	9%	-1.0
C=CCn1c(=N)c(C(=O)NCCCOC)cc2c(=O)n3cc(C)ccc3nc21	1	?	-6	18%	-19%	7%	-0.9
CC[C@H](C)[C@H]1CNC(=O)C(=O)N1CC1CCN(CC2CCC(C)CC2)CC1 (some centres undefined)	-5	·	·	·	0.2%	11%	·
COC(=O)c1cc(OC)c(OC)cc1NC(=O)C1CCC(=O)N1S(=O)(=O)c1ccc(C)cc1 (centres undefined)	6	1%	-9	8%	-8.0%	22%	2.2
CCOc1cccc(Nc2ccc([N+](=O)[O-])cn2)c1	-1	-18%	-31	7%	·	1%	6.8
CCN(CC)C(=O)Cn1c(=O)n(-c2ccc(CC(=O)NCc3ccccc3)cc2)c(=O)c2sccc21	4	?	1	11%	-0.7%	3%	0.0
CNC(=O)c1c(NC(=O)CCS(=O)(=O)c2ccccc2)sc2c1CCN(C(=O)OC)C2	2	-45%	-1	·	-1.1%	-8%	·
COc1ccc(C(=O)CN2CCN(CCN3C(=O)c4cccc5cccc(c45)C3=O)CC2)cc1	·	14%	·	·	?	3%	·

Assay outcomes (PubChem BioAssay)
